Assay outcomes from PubChem BioAssay.
Sa growth inh = S. aureus growth inhibition at 42 and 30 °C, primary screen, LtaS inhibitor project, RN4220, two temperatures; relative growth, % (test concentration not listed); OD600, 20 h, 42 °C; stronger effect = lower value; 170,000 tested, 0.53% active;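 active = growth at 42 °C up to 50% and 20 or more points under that at 30 °C, or under 10% at both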;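 also: 300 nL library stock went into each well; scaled to the means of positive and negative controls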
GIV-Gai inh = inhibitors of GIV peptide binding to Galpha-i3, primary screen, biochemical, fluorescence polarization, FITC-GIV GBA peptide, rat Galphai3. Guanine nucleotide-binding protein G(i) subunit alpha-3 (Rattus norvegicus), P08753. 90 min; stronger effect = lower value; scaled: aluminum fluoride 0%, vehicle 100%. percent of control (FP), % (test concentration not listed). 210,000 tested, 0.42% active. AID 1224905, 2016;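 active = replicate mean at 85% of control or lower, very high polarization wells dropped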;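 also: wells of about 15 µL received 100 nL stock; the first replicate is given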
Target sequence (P08753 whole entry, looked up): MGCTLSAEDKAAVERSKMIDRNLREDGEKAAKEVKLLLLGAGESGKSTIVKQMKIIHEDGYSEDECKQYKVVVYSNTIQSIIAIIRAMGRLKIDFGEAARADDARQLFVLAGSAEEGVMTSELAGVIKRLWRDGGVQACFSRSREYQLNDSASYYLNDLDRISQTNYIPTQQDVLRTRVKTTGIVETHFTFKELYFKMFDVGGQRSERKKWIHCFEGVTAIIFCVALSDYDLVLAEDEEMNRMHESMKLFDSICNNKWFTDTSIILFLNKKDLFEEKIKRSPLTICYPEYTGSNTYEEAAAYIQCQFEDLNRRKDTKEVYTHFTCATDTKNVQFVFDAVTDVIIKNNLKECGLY
HCMV NEC inh = inhibitors of HCMV UL50-UL53 interaction, biochemical, HTRF; inhibition, % (test concentration not listed); 190,000 tested, 0.15% active; HCMV UL50-UL53 nuclear egress complex (human cytomegalovirus); normalized percent inhibition;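 active = both replicates at 50% or more, plus weaker picks with an unusually low signal ratio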;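 also: stock transfer was 100 nL into about 20 µL; 0% = negative control wells and 100% = wells with untagged competitor protein; inactives centre near -12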
Sa growth inh second temp = also measured in Sa growth inh; calls as there; relative growth, %; measured here: growth at 30 °C;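 optical density after 20 h as mean of two plates; 100% = untreated growth and lower means inhibition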
* marks the source's active call; other numbers are inactive results; . = no result given; & = joins results of further samples.

SMILES	Sa growth inh	Sa growth inh second temp	GIV-Gai inh	HCMV NEC inh
CCOC(=O)N1CCC(NC(=O)C(NC(=O)C2CCC(C)CC2)C(C)C)CC1 (stereo not drawn)	98.6	90.3	100.6	.
Cc1oc2ncn(C)c(=O)c2c1C(=O)Nc1ccccc1	94.6	85.7	108.8	-16.3
O=C1c2ccccc2C(Nc2ccc(S(=O)(=O)N3CCOCC3)cc2)N1Cc1ccccc1Cl (stereo not drawn)	86.0	94.8	110.4	.
COc1ccc(CN(C)CC(O)COc2ccc(C#N)cc2)cc1 (stereo not drawn)	74.2	94.8	.	-20.6
Cc1sc2c(c1C)c(=O)n(-c1cccc(C(F)(F)F)c1)c(=O)n2Cc1ccc(F)cc1	97.1	97.4	100.9	-24.0
CCOc1ccc(-c2nc(-c3cccs3)c(CC(=O)O)s2)cc1OC	88.9	82.7	.	-29.7
O=C(Nc1ccc(Cl)cc1Cl)c1cc(S(=O)(=O)NCc2ccc3c(c2)OCO3)ccc1F	128.7	85.7	104.3	.
Clc1ccc(Cl)c(-c2ccc(CNC3CC3)o2)c1	.	.	105.5	-6.8
Cc1ccc(NS(=O)(=O)c2cn(C)cn2)c(Cl)c1	.	.	106.1	-7.8
CN(C)Cc1c(O)ccc2c(=O)c(-c3ccccc3)c(C(F)(F)F)oc12	105.8	88.5	.	-28.0
O=c1[nH]c(SCc2ccc(Cl)cc2)nc2c1cnn2-c1ccc(F)cc1	.	.	99.3	-18.3
O=C(Nc1nc2ccc(F)cc2s1)c1nc(S(=O)(=O)Cc2ccccc2F)ncc1Cl	67.9	62.5	100.9	1.3
COc1ccccc1NC(=O)C1=C(C)Nc2nc(SCc3ccccc3)nn2C1c1cccc(O)c1 (stereo not drawn)	97.1	84.0	104.6	-6.5
N#Cc1c(N2CCCC(C(=O)O)C2)nc(N)c2c(N)nc3c(c12)CC(=O)N3C1CCCC1 (stereo not drawn)	70.2	77.0	.	-17.6
CNC(=S)N/N=C(\C)c1ccc(-n2ccnc2)cc1	104.5	98.0	.	-32.3
O=C(Cn1c(=O)oc2cc(S(=O)(=O)N3CCCC3)ccc21)NCc1ccc(F)cc1	109.3	90.0	101.3	2.0
C[N+](C)(C)CCOC(N)=O	85.8&97.7	86.2&97.0	101.4&94.7	-8.1&-3.0&3.3&-9.9
COc1ccc(C2Nc3ccccc3-n3c(-c4ccccc4)c4c(=O)n(C)c(=O)n(C)c4c32)cc1 (stereo not drawn)	93.7	70.0	109.4	-5.4
CCOc1cccc2cc(C(=O)N3CCN(C/C=C/c4ccccc4)CC3)c(=O)oc12	101.1	97.2	103.8	-8.8
CCC(Sc1nc2ccncc2[nH]1)C(=O)N(CC)CC (stereo not drawn)	95.6	90.1	104.1	.
COC(=O)c1ccccc1NC(=O)CSc1nc(C)cc(C)c1C(=O)Nc1cccc(C)c1	.	.	110.9	-4.7
O=C(O)c1cn2c3c(cccc3c1=O)CC2	85.5	61.5	102.8	-23.1
CC1CCN(S(=O)(=O)c2ccc3c(c2)CCC(=O)N3CC(=O)N2CCCC2)CC1	.	.	107.7	-16.6
COc1nc2ccccc2nc1C(=O)Nc1cccc(C)c1	.	.	99.8	-75.4
COC(=O)N/N=C/C1=CCC2CC1C2(C)C (stereo not drawn)	92.2	92.0	.	-22.6
CN(C)C(=S)SCc1nc(-c2ccc(Cl)cc2)no1	94.8	83.1	94.7	-3.0
CCN(CC)S(=O)(=O)c1ccc2c(c1)N(CC(=O)NCCCN1CCN(c3ccc(OC)cc3)CC1)C(=O)CO2	116.9	83.2	102.6	.
Oc1ccccc1/C=N/N1CCCCC1	95.0	88.5	.	-35.4
CCC(=O)N1c2ccccc2CC1C(=O)NCCN1CCN(c2ccccc2F)CC1 (stereo not drawn)	76.8	95.5	95.9	.
CC(=O)Nc1cccc(-c2cc(-c3ccc(Cl)cc3Cl)no2)c1	122.3	96.4	106.6	-4.1
O=C(Nc1ccc(Br)cc1)N1CCCC1c1ccc(F)cc1 (stereo not drawn)	.	.	97.6	16.1
CCCN1C(=O)/C(=C/c2nc3ccccc3c(=O)n2-c2ccccc2[N+](=O)[O-])c2ccccc21	.	.	100.0	-10.0
Cc1cc(SC(C)C(=O)NC(N)=O)nc2ccccc12 (stereo not drawn)	93.4	96.3	.	-6.7
O=C(NCCCc1ccccc1)C1CCN(c2nnc(-n3cccc3)s2)CC1	92.0	90.0	102.8	-9.3
COc1ccc(C2C(C(=O)Nc3ccc(C)c(F)c3)CC(=O)N2c2ccc(OC)cc2)cc1 (stereo not drawn)	80.5	81.8	104.0	.
CCc1ccc(NC(=O)Nc2ccc3c(c2)N(CC)C(=O)c2ccccc2S3)cc1	72.6	73.9	100.8	.
Cn1c2ccccc2c2cnn(CC(=O)NCc3ccc4c(c3)OCO4)c(=O)c21	101.5	87.1	110.8	.
Cc1nn(C)c(C)c1CCN(C)C(=O)Nc1ccc(F)cc1F	.	.	100.5	-4.6
COC(CNC(=O)c1ccc2c(c1)N(Cc1cccc(Cl)c1)C(=O)c1ccccc1S2=O)OC (stereo not drawn)	108.2	118.7	101.2	4.9
N#CC1=C(N)C2=C(N3CCOCC3)CCCC2C1(C#N)C#N (stereo not drawn)	91.5	82.1	99.7	-37.2
COc1ccc(C(C#N)C(C)C)cc1OC (stereo not drawn)	86.6	79.9	100.6	-15.6
CC(C)c1ccc(S(=O)(=O)NC2CC(C)(C)NC(C)(C)C2)cc1	96.0	84.3	.	-4.8
Fc1ccc(-c2nnn3c2nc(N2CCCC2)c2ccccc23)cc1	98.5	89.3	105.7	-12.7
COc1ccc(C(N)CC(=O)OC(C)C)cc1 (stereo not drawn)	76.1	88.8	.	-28.5
CC1(C)CC(=O)C/C(=N/Nc2nc3ccccc3o2)C1	78.6	83.5	.	-16.4

An excerpt from above in order of heavy-atom count, lowest first.
SMILES	Sa growth inh	Sa growth inh second temp	GIV-Gai inh	HCMV NEC inh
CN(C)C(=S)SCc1nc(-c2ccc(Cl)cc2)no1	94.8	83.1	94.7	-3.0
O=C(Nc1ccc(Cl)cc1Cl)c1cc(S(=O)(=O)NCc2ccc3c(c2)OCO3)ccc1F	128.7	85.7	104.3	.
COc1ccc(C2Nc3ccccc3-n3c(-c4ccccc4)c4c(=O)n(C)c(=O)n(C)c4c32)cc1 (stereo not drawn)	93.7	70.0	109.4	-5.4

(further entries)
SMILES	Sa growth inh	Sa growth inh second temp	GIV-Gai inh	HCMV NEC inh
CN(C)/C=C/c1nc(C(F)(F)F)c(C#N)s1	.	.	20.7*	-19.5
O=C1NC(=S)N(c2ccccc2)C(=O)/C1=C/c1cccn1-c1ccc(Br)cc1	.	.	104.1	-2.6
Cn1ccnc1SCC(=O)Nc1ccccc1	89.7	86.3	104.4	-27.6
CCCc1cc(=O)[nH]c(SCC(=O)N2CCN(c3ccccc3)CC2)n1	93.3&119.5	89.0&83.0	107.4&103.5	1.9&-13.1
COc1ccc2[nH]c(=O)c(CN(Cc3cccs3)C(c3nnnn3C(C)(C)C)C(C)C)cc2c1 (stereo not drawn)	88.8	124.0	97.3	9.8
Cc1cccc(NC(=O)CN(C)S(=O)(=O)c2ccc3c(c2)CCC(=O)N3)c1C	102.6	91.6	101.4	-28.7
Cc1ccc(NS(=O)(=O)c2cc(N3C(=O)CCS3(=O)=O)ccc2C)cc1Br	.	.	100.2	8.6
O=S(=O)(Nc1ccc(-c2ccc(N3CCOCC3)nn2)cc1)c1cc(F)ccc1F	.	.	96.9	-46.0
Cc1cc2c(cc1S(=O)(=O)N1CCCCC1)OCC(=O)N2	91.6	84.4	111.8	.
Cc1cc(C)c(NC(=O)Cn2c(=O)n(Cc3ccc4c(c3)OCO4)c(=O)c3ccccc32)c(C)c1	96.8	88.3	102.5	-6.4
O=C(CSc1nnc2ccccn12)Nc1cccc(C(F)(F)F)c1	.	.	101.2	-23.0
CCn1c(CN2CCC(C)CC2)nc2cc(NC(=O)COc3ccc([N+](=O)[O-])cc3)ccc21	117.2	89.5	100.6	-11.4
NN1C(=O)c2cccc3cccc(c23)C1=O	103.0	91.7	.	-156.0
NC(=S)N/N=C/c1cccc(Br)c1	89.8	90.3	101.3	-45.1
CC(C)N1CC2=C(OC(N)=C(C#N)C2c2cccnc2)/C(=C/c2cccnc2)C1 (stereo not drawn)	111.8	82.2	94.7	-25.9

3 compounds picked at random from the list so far, as already listed:
SMILES	Sa growth inh	Sa growth inh second temp	GIV-Gai inh	HCMV NEC inh
COC(=O)c1ccccc1NC(=O)CSc1nc(C)cc(C)c1C(=O)Nc1cccc(C)c1	.	.	110.9	-4.7
O=C(O)c1cn2c3c(cccc3c1=O)CC2	85.5	61.5	102.8	-23.1
Cc1cccc(NC(=O)CN(C)S(=O)(=O)c2ccc3c(c2)CCC(=O)N3)c1C	102.6	91.6	101.4	-28.7

New compounds follow:
SMILES	Sa growth inh	Sa growth inh second temp	GIV-Gai inh	HCMV NEC inh
O=C(CSc1n[nH]c(=O)[nH]c1=O)N1CCCCCC1	99.2	91.1	.	-51.5
O=C(O)CCC(=O)N(Cc1ccccc1)Cc1ccccc1	115.2	85.2	98.8	-17.7
CC(C)c1ccc(-c2noc(SCC(=O)N3CCCCC3C)n2)cc1 (stereo not drawn)	89.2	85.1	102.2	.
c1cc(SSc2ccsc2)cs1	13.4	0.6	100.6	8.3
Cc1ccc(C(=O)Nc2nc3nc(-c4ccccc4)cc(=O)n3[nH]2)cc1	111.5	89.0	102.5	29.6
CC(C)Cc1ccc(/C=C/C(=O)N2CCOCC2)cc1	93.5	100.3	.	-23.1
COc1ccc(O)c(C(=O)c2cnn3c(N)nnc3c2)c1	39.9	17.0	.	14.8
c1ccc(-c2cc(N3CCOCC3)c3ccccc3n2)cc1	89.6	87.8	100.2	-8.2
O=C(O)C1C2C=CC3(CN(C/C=C/c4ccccc4)C(=O)C13)O2 (stereo not drawn)	105.3	96.3	.	-6.3
COc1ccc(N2CCN(C(=O)C3Cc4ccccc4N3C(C)=O)CC2)cc1 (stereo not drawn)	77.6	92.5	99.7	.
CCc1ccccc1NC(=O)CCn1c(C(F)(F)F)nc2cc(S(=O)(=O)N(C)C)ccc21	.	.	104.8	-23.4
Cc1ccc(-c2nc3nc(C)cc(C)n3c2Nc2ccc3c(c2)OCCO3)cc1	117.9	70.9	101.3	-4.3
COc1ccc(Cn2c(CNC(=O)c3ccc(N(C)C)cc3)nc3cccnc32)cc1	106.1	93.7	114.4	.
CCn1c(=O)c(=O)n(CC)c2cc(S(=O)(=O)Nc3ccc(C)cc3)ccc21	84.2	89.2	110.2	-7.7
COc1ccc(C(=O)N2CC(=O)Nc3ccc(Br)cc3C2c2ccc(F)cc2)cc1OC (stereo not drawn)	96.7	92.5	98.3	-18.2
CCCCOc1cccc(C(=O)Nc2cccc(-c3nc4ncccc4o3)c2C)c1	97.7	86.7	104.8	-74.9
Cc1nc2sc(-c3ccccc3)cc2c(=O)n1-n1cccc1	89.4	95.2	.	-12.4
COC(CNC(=O)Cc1ccc(-n2c(=O)[nH]c3ccsc3c2=O)cc1)OC	92.2	97.2	99.0	.
CCOC(=O)C1CCC(CN(Cc2ccc(OC)cc2)S(=O)(=O)c2ccc(F)c(C(=O)Nc3c(C)cccc3C)c2)CC1 (stereo not drawn)	116.1	90.7	104.8	.
N#Cc1ccccc1S(=O)(=O)N1CCNCC1	89.2	90.5	.	-7.3
COc1ccc2nc(SCC(=O)c3cc4c5c(c3)CC(=O)N5CCC4)[nH]c2c1	71.3	85.4	.	1.8
Cc1c(CNCCCc2ccccc2)c(C(=O)O)c(C)n1Cc1cccc(Cl)c1	111.0	85.8	105.5	-33.4
CN1CCN(C(=O)c2ccc(N)cc2)CC1	89.5	96.5	102.1&103.8	-13.9
CCn1c2ccccc2c2cc(NC(=O)CN3CCN(S(=O)(=O)c4ccc(OC)cc4)CC3)ccc21	95.6	95.3	105.0	-30.0
OC(CSc1ccccc1)CN1CCN(Cc2ccc3c(c2)OCO3)CC1 (stereo not drawn)	98.4	86.0	98.2	-0.8
O=C(Cc1csc(NC(=O)c2cccs2)n1)NO	87.6	72.1	102.8	-8.6
COc1ccc2cc3c(nc2c1)N(C(=O)c1ccc(S(=O)(=O)N2CCCC2)cc1)CC3	.	.	101.5	-6.8
O=C(Nc1nc2nc(-c3ccccc3)cc(=O)n2[nH]1)C1CC1	82.5	83.6	95.9	-13.0
Cc1ccc2nc(CN3NS(=O)(=O)c4ccccc4C3=O)cn2c1	97.0	74.0	.	-26.2
O=C(CCN1C(=O)/C(=C\C=C\c2ccco2)SC1=S)Nc1ccc(C(=O)O)c(O)c1	57.5	59.8	148.3	-20.3
CCOC(=O)/C(=C(/C)Nc1ccc(F)cc1)C1CC(=O)N(c2cc(C)on2)C1=O (stereo not drawn)	92.6	95.6	110.2	-8.7
c1cn(CCCNc2ncnc3ccsc23)cn1	77.2	78.8	106.7	-15.1

4 compounds from above, reduced to Sa growth inh second temp:
mol,Sa growth inh second temp
O=C(Nc1nc2nc(-c3ccccc3)cc(=O)n2[nH]1)C1CC1,83.6
CCn1c2ccccc2c2cc(NC(=O)CN3CCN(S(=O)(=O)c4ccc(OC)cc4)CC3)ccc21,95.3
COC(CNC(=O)Cc1ccc(-n2c(=O)[nH]c3ccsc3c2=O)cc1)OC,97.2
CCOC(=O)/C(=C(/C)Nc1ccc(F)cc1)C1CC(=O)N(c2cc(C)on2)C1=O (stereo not drawn),95.6
